# Assay outcomes deposited in PubChem BioAssay by Broad Institute.
# Env fusion inh – HIV envelope-mediated fusion inhibition | HeLa-JRFL Env/CEM21 cell fusion, luciferase | inhibition, % at 12.3 µM | 1.1% of 360,000 active;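 active = mean replicate inhibition score of at least 50 and every replicate individually at or above 50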;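 also: 0% = plate neutral controls and 100% = maraviroc near 300 nM; one replicate is shown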
# Yeast UUG start – yeast start codon fidelity modulation; activity score, % at 18.7 µM; AID 602363; S. cerevisiae UUG-firefly luciferase reporter, luminescence/redox ratio; 0.13% of 350,000 active;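 active = replicate mean at a twofold rise or more, about +100% in these data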;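 also: firefly luciferase made from a UUG start codon reports start codon fidelity; reporter light over untreated wells divided by growth signal over untreated wells; some hits fall short of that in this replicate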
# * hit, by the source's call; & = joins results of further samples; [ ] = remark or other dose. These rows are one share of the data (hit frequency here may not be typical).
SMILES,Env fusion inh,Yeast UUG start
COc1ccccc1CNC(=O)C[C@H]1C[C@H]2c3cc(NC(=O)C4CCC4)ccc3O[C@H]2[C@H](CO)O1,-38[16.7 µM],10
CC(C)C#Cc1cnc2c(c1)C(=O)N([C@H](C)CO)C[C@H](C)[C@@H](CN(C)Cc1ccc3c(c1)OCO3)O2,7[16.7 µM],35
C[C@@H]1CN([C@H](C)CO)C(=O)c2cc(NC(=O)NC3CCCCC3)ccc2O[C@@H](C)CCCCO[C@@H]1CN(C)S(=O)(=O)c1ccc(F)cc1,-6[16.7 µM],-15
COC(=O)C[C@H]1CC[C@H]2[C@H](COc3ccc(NC(=O)c4ccc(F)c(F)c4)cc3C(=O)N2C)O1,1[16.7 µM],9
COc1cccc(C(=O)Nc2ccc3c(c2)OC[C@@H](C)N(C)C[C@@H](C)[C@H](OC)CN(C)C3=O)c1,6[16.7 µM],-1
Cc1noc(C)c1NC(=O)N(C)C[C@H]1Oc2ncc(C#CCN(C)C)cc2C(=O)N([C@@H](C)CO)C[C@@H]1C,-5[16.7 µM],-5
COc1ccc(NC(=O)Nc2ccc3c(c2)C(=O)N([C@@H](C)CO)C[C@@H](C)[C@H](CN(C)S(=O)(=O)c2cn(C)cn2)OCCCC[C@@H](C)O3)cc1,0[16.7 µM],15
CC(C)CC#Cc1ccc2c(c1)O[C@@H](CN(C)Cc1cccc(F)c1)[C@@H](C)CN([C@H](C)CO)S2(=O)=O,10[16.7 µM],4
O=C(N[C@@H]1CC[C@H](CCNC(=O)C2CCOCC2)O[C@@H]1CO)c1ccccn1,-13[16.7 µM],-1
CN(C)CCCNC(=O)C[C@@H]1C=C[C@@H](NS(=O)(=O)c2ccccc2)[C@@H](CO)O1,20[16.7 µM],1
COc1ccccc1NC(=O)N[C@H]1CC[C@@H](CCNC(=O)Cc2ccccn2)O[C@H]1CO,-3[16.7 µM],5
C[C@@H]1CN([C@@H](C)CO)S(=O)(=O)c2ccc(-c3cccc(F)c3)cc2O[C@H]1CN(C)S(=O)(=O)c1ccccc1,51[16.7 µM],-14
COc1ccc(NC(=O)COc2ccccc2Cl)cc1S(=O)(=O)N1CCCCC1,9,-16
N#C[C@@H]1[C@H](c2ccc(C#CC3CCCCC3)cc2)[C@H](CO)N1C(=O)c1cccc(F)c1,16[16.7 µM],-1
Cc1noc(C)c1NC(=O)Nc1cccc2c1O[C@@H](CN(C)C(=O)Nc1ccccc1)[C@H](C)CN([C@@H](C)CO)C2=O,6[16.7 µM],-12
COc1ccc(CN(C)C[C@H]2OCCCC[C@H](C)Oc3ccc(NC(=O)NC4CCCCC4)cc3C(=O)N([C@@H](C)CO)C[C@@H]2C)cc1,6[16.7 µM],28
Cc1ccc(S(=O)(=O)N(C)C[C@@H]2Oc3ncc(Br)cc3C(=O)N([C@@H](C)CO)C[C@H]2C)cc1,12[16.7 µM],13
Cc1noc(C)c1S(=O)(=O)Nc1ccc2c(c1)C(=O)N([C@@H](C)CO)C[C@H](C)[C@H](CN(C)CC1CCCCC1)OCCCC[C@H](C)O2,-36[16.7 µM],15
C[C@H]1CN([C@@H](C)CO)C(=O)c2cccc(N(C)C)c2O[C@@H]1CN(C)Cc1ccc(Oc2ccccc2)cc1,24[16.7 µM],0
C[C@H](CO)N1C[C@H](C)[C@@H](CN(C)Cc2ccc3c(c2)OCO3)Oc2cc(C#CCN(C)C)ccc2S1(=O)=O,-28[16.7 µM],0
COc1ccc(CN(C)C[C@@H]2OCCCC[C@H](C)Oc3ccc(NS(=O)(=O)c4ccc(F)cc4)cc3C(=O)N([C@H](C)CO)C[C@H]2C)cc1,20[16.7 µM],8
C[C@H](CO)N1C[C@H](C)[C@H](CN(C)Cc2ccncc2)OCCCC[C@H](C)Oc2ccc(NS(=O)(=O)c3ccc(Cl)cc3)cc2C1=O,11[16.7 µM],26
COc1ccccc1C(=O)Nc1ccc2c(c1)OC[C@@H](C)NC[C@H](C)[C@@H](OC)CN(C)C2=O,-16[16.7 µM],0
C[C@@H]1CCCCO[C@H](CN(C)C(=O)Nc2ccc(C(F)(F)F)cc2)[C@H](C)CN([C@@H](C)CO)C(=O)c2cc(NS(=O)(=O)c3cn(C)cn3)ccc2O1,6[16.7 µM],-11
C[C@H](CO)N1C[C@H](C)[C@H](CN(C)S(C)(=O)=O)Oc2ccc(NS(=O)(=O)c3ccc(Cl)cc3)cc2C1=O,-3[16.7 µM],-5
CCC(=O)N(C)C[C@H]1Oc2cc(-c3ccccc3OC)ccc2S(=O)(=O)N([C@H](C)CO)C[C@H]1C,-10[16.7 µM],20
COCC#Cc1ccc2c(c1)O[C@H](CN(C)Cc1ccncc1)[C@@H](C)CN([C@@H](C)CO)S2(=O)=O,-19[16.7 µM],-14
O=C(C[C@@H]1C=C[C@@H](NS(=O)(=O)c2ccc(F)cc2)[C@H](CO)O1)NCCN1CCCCC1,14[16.7 µM],0
CO[C@H]1CN(C)C(=O)c2ccc(NC(=O)NC(C)C)cc2OC[C@H](C)N(CC2CC2)C[C@@H]1C,-6[16.7 µM],-4
C[C@@H]1CN([C@H](C)CO)C(=O)c2cc(NC(=O)Nc3cccc4ccccc34)ccc2O[C@@H]1CN(C)C(=O)Nc1ccc(F)cc1,3[16.7 µM],-12
C[C@@H]1CCCCO[C@H](CN(C)S(=O)(=O)c2cn(C)cn2)[C@H](C)CN([C@H](C)CO)C(=O)c2cc(NS(=O)(=O)c3ccc(F)cc3)ccc2O1,6[16.7 µM],19
COc1cccc(S(=O)(=O)Nc2ccc3c(c2)[C@H]2C[C@H](CC(=O)O)O[C@H](CO)[C@H]2O3)c1,-7[16.7 µM],-1
COc1ccc(S(=O)(=O)N(C)C[C@H]2OCCCC[C@@H](C)Oc3ccc(NC(=O)Nc4ccc(C(F)(F)F)cc4)cc3C(=O)N([C@@H](C)CO)C[C@@H]2C)cc1,-11[16.7 µM],-3
Cc1ccc(S(=O)(=O)N(C)C[C@@H]2Oc3ncc(-c4ccccc4)cc3C(=O)N([C@@H](C)CO)C[C@H]2C)cc1,10[16.7 µM],0
O=C(Cc1ccncc1)Nc1ccc2c(c1)[C@@H]1C[C@H](CC(=O)N3CCOCC3)O[C@H](CO)[C@@H]1O2,-1[16.7 µM],-8
CCCNC(=O)C[C@@H]1C[C@@H]2c3cc(NC(=O)NC4CCCC4)ccc3O[C@@H]2[C@@H](CO)O1,10[16.7 µM],0
COc1ccc(NC(=O)Nc2ccc3c(c2)C(=O)N([C@@H](C)CO)C[C@H](C)[C@H](CN(C)C(=O)Nc2ccc(OC)cc2)O3)cc1,10[16.7 µM],25
O=C(C[C@@H]1CC[C@H](NC(=O)c2ccc(F)cc2)[C@@H](CO)O1)NCCc1ccccc1,-16[16.7 µM],-5
O=C(Nc1ccc2c(c1)[C@@H]1C[C@@H](CC(=O)N3CCOCC3)O[C@@H](CO)[C@@H]1O2)C1CCC1,1[16.7 µM],42
C[C@H](CO)N1C[C@H](C)[C@@H](CN(C)C(=O)Cc2cccnc2)Oc2ncc(-c3ccncc3)cc2C1=O,-6[16.7 µM],88
CCS(=O)(=O)Nc1ccc2c(c1)C(=O)N(C)[C@@H]1CC[C@H](CC(=O)Nc3ccccc3)O[C@H]1CO2,3[16.7 µM],9
COCC(=O)N1[C@H](C#N)[C@H](c2ccc(C3=CCCCC3)cc2)[C@H]1CO,7[16.7 µM],15
CC(C)NC(=O)N(C)C[C@@H]1Oc2c(NS(C)(=O)=O)cccc2C(=O)N([C@H](C)CO)C[C@@H]1C,1[16.7 µM],-16
C[C@H]1CN([C@@H](C)CO)C(=O)c2cc(C#CC3CC3)cnc2O[C@@H]1CN(C)Cc1ccccn1,6[16.7 µM],-14
C[C@@H]1CN([C@@H](C)CO)C(=O)c2cc(NS(=O)(=O)c3cn(C)cn3)ccc2O[C@@H](C)CCCCO[C@H]1CN(C)Cc1ccc2c(c1)OCO2,-11[16.7 µM],-2
Cc1ccc(S(=O)(=O)N[C@@H]2CC[C@H](CC(=O)NCc3ccncn3)O[C@@H]2CO)cc1,5[16.7 µM],-11
C/C=C/c1ccc2c(c1)O[C@H](CN(C)Cc1ccccn1)[C@@H](C)CN([C@H](C)CO)S2(=O)=O,-16[16.7 µM],-1
CC(C)NC(=O)N[C@@H]1CC[C@@H](CCNC(=O)C2CCCC2)O[C@H]1CO,5[16.7 µM],-11
CC(C)NC(=O)N(C)C[C@@H]1Oc2ncc(/C=C/c3ccccc3)cc2C(=O)N([C@H](C)CO)C[C@@H]1C,2[16.7 µM],14
CN1C(=O)c2cc(NC(=O)c3cccs3)ccc2OC[C@@H]2O[C@H](CC(=O)NCC(F)(F)F)CC[C@H]21,-9[16.7 µM],34
C[C@@H]1CCCCO[C@H](CN(C)C(=O)CCC(F)(F)F)[C@@H](C)CN([C@H](C)CO)C(=O)c2cc(NS(=O)(=O)c3ccc(F)cc3)ccc2O1,-55[16.7 µM],1
CN1C(=O)c2cc(NC(=O)c3cccs3)ccc2OC[C@H]2O[C@@H](CC(=O)N3CCOCC3)CC[C@@H]21,-3[16.7 µM],3
Cc1ccc(S(=O)(=O)N(C)C[C@H]2Oc3c(NS(=O)(=O)c4ccc(Cl)cc4)cccc3C(=O)N([C@H](C)CO)C[C@H]2C)cc1,5[16.7 µM],20
C[C@H](CO)N1C[C@H](C)[C@H](CN(C)Cc2ccccc2)Oc2ncc(-c3ccccc3)cc2C1=O,7&15[16.7 µM],-6&-15
C[C@H](CO)N1C[C@H](C)[C@H](CN(C)C(=O)c2ccc3c(c2)OCO3)Oc2ncc(C#CCN(C)C)cc2C1=O,-11[16.7 µM],13
C[C@H](CO)N1C[C@H](C)[C@@H](CN(C)Cc2ccc(C(=O)O)cc2)OCCCC[C@H](C)Oc2ccc(NC(=O)Nc3ccccc3)cc2C1=O,3[16.7 µM],6
O=C(C[C@H]1CC[C@H](NC(=O)c2ccccc2)[C@@H](CO)O1)NCCc1ccncc1,-6[16.7 µM],10
COc1cccc(NC(=O)N(C)C[C@H]2Oc3cc(-c4ccccc4OC)ccc3S(=O)(=O)N([C@H](C)CO)C[C@@H]2C)c1,1[16.7 µM],10
C[C@H]1CN([C@@H](C)CO)S(=O)(=O)c2ccc(C#Cc3ccccc3F)cc2O[C@@H]1CN(C)C(=O)Cc1cccnc1,33[16.7 µM],25
O=C(C[C@@H]1CC[C@H](NC(=O)Nc2ccc3c(c2)OCO3)[C@@H](CO)O1)NCc1ccccc1,-3[16.7 µM],0

# Sorted by molar mass (high to low): some entries from above.
SMILES,Env fusion inh,Yeast UUG start
C[C@H]1CN([C@@H](C)CO)S(=O)(=O)c2ccc(C#Cc3ccccc3F)cc2O[C@@H]1CN(C)C(=O)Cc1cccnc1,33[16.7 µM],25
CN1C(=O)c2cc(NC(=O)c3cccs3)ccc2OC[C@@H]2O[C@H](CC(=O)NCC(F)(F)F)CC[C@H]21,-9[16.7 µM],34
O=C(C[C@H]1CC[C@H](NC(=O)c2ccccc2)[C@@H](CO)O1)NCCc1ccncc1,-6[16.7 µM],10

# Next compounds follow.
SMILES,Env fusion inh,Yeast UUG start
C[C@H](CO)N1C[C@H](C)[C@H](CN(C)C(=O)Nc2ccccc2F)Oc2ncc(-c3ccccc3)cc2C1=O,-19[16.7 µM],7
C[C@H]1CN([C@@H](C)CO)C(=O)c2cc(NS(=O)(=O)c3ccccc3)ccc2O[C@@H]1CN(C)S(=O)(=O)c1cccs1,-2[16.7 µM],12
C[C@H]1CN([C@@H](C)CO)C(=O)Cc2cc(NC(=O)Nc3cccc4ccccc34)ccc2O[C@@H]1CN(C)C(=O)Nc1ccc(C(F)(F)F)cc1,-17[16.7 µM],3
COc1ccc(S(=O)(=O)Nc2ccc3c(c2)C(=O)N([C@@H](C)CO)C[C@@H](C)[C@H](CN(C)C(=O)Nc2ccc(F)cc2)OCCCC[C@@H](C)O3)cc1,-61[16.7 µM],-7
C[C@@H]1CCCCO[C@@H](CN(C)C)[C@@H](C)CN([C@@H](C)CO)C(=O)c2cc(NC(=O)Nc3ccc(F)cc3)ccc2O1,12[16.7 µM],15
C[C@H](CO)N1C[C@H](C)[C@@H](CN(C)C(=O)Nc2cccc3ccccc23)OCCCC[C@H](C)Oc2ccc(NS(=O)(=O)c3ccc(Cl)cc3)cc2C1=O,12[16.7 µM],-18
C[C@H]1CCCCO[C@@H](CN(C)C(=O)c2ccncc2)[C@@H](C)CN([C@@H](C)CO)C(=O)c2cc(N(C)C)ccc2O1,8[16.7 µM],-2

# A draw from above in order of SMILES length, lowest first.
SMILES,Env fusion inh,Yeast UUG start
O=C(C[C@H]1CC[C@H](NC(=O)c2ccccc2)[C@@H](CO)O1)NCCc1ccncc1,-6[16.7 µM],10
O=C(C[C@@H]1CC[C@H](NC(=O)Nc2ccc3c(c2)OCO3)[C@@H](CO)O1)NCc1ccccc1,-3[16.7 µM],0
C[C@H](CO)N1C[C@H](C)[C@H](CN(C)C(=O)Nc2ccccc2F)Oc2ncc(-c3ccccc3)cc2C1=O,-19[16.7 µM],7
C[C@H]1CN([C@@H](C)CO)S(=O)(=O)c2ccc(C#Cc3ccccc3F)cc2O[C@@H]1CN(C)C(=O)Cc1cccnc1,33[16.7 µM],25
C[C@H]1CN([C@@H](C)CO)C(=O)c2cc(NS(=O)(=O)c3ccccc3)ccc2O[C@@H]1CN(C)S(=O)(=O)c1cccs1,-2[16.7 µM],12
C[C@@H]1CCCCO[C@@H](CN(C)C)[C@@H](C)CN([C@@H](C)CO)C(=O)c2cc(NC(=O)Nc3ccc(F)cc3)ccc2O1,12[16.7 µM],15
C[C@H]1CN([C@@H](C)CO)C(=O)Cc2cc(NC(=O)Nc3cccc4ccccc34)ccc2O[C@@H]1CN(C)C(=O)Nc1ccc(C(F)(F)F)cc1,-17[16.7 µM],3
C[C@H](CO)N1C[C@H](C)[C@@H](CN(C)C(=O)Nc2cccc3ccccc23)OCCCC[C@H](C)Oc2ccc(NS(=O)(=O)c3ccc(Cl)cc3)cc2C1=O,12[16.7 µM],-18
COc1ccc(S(=O)(=O)Nc2ccc3c(c2)C(=O)N([C@@H](C)CO)C[C@@H](C)[C@H](CN(C)C(=O)Nc2ccc(F)cc2)OCCCC[C@@H](C)O3)cc1,-61[16.7 µM],-7
